CBX7 AlphaScr – blocks human CBX7 binding to H3K27me3 peptide; O95931; AlphaScreen His6-CBX7 / biotin-H3K27me3 peptide binding; hits give low values; normalised signal (fraction of DMSO) (test concentration not listed); 1.1% of 66,000 active; AID 1224903; in the data active = normalised signal below about 0.5;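 note: 100 nL library stock added to about 20 µL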
Target sequence (O95931 whole entry, looked up): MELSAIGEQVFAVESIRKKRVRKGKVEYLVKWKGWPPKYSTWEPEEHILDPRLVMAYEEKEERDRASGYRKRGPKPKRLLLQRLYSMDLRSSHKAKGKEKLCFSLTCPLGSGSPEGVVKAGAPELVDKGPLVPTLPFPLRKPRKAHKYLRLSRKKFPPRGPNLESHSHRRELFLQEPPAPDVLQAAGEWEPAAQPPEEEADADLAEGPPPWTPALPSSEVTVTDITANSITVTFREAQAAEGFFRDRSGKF
CBX7 AlphaScr z-score – recorded beside CBX7 AlphaScr, whose call it bears; z-score; measured here: z-score of CBX7 signal; some inactives read as strong as hits; reference of the scale not given here;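 same signal on another scale; lower means less binding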
An asterisk follows results filed as active. These rows are one share of the data; count on the stated rates, not on these rows.

SMILES | CBX7 AlphaScr | CBX7 AlphaScr z-score
COc1ccc(NC(=O)c2cc3c(-c4ccc(OC)c(OC)c4)nn(C)c3s2)cc1OC | 0.85 | -1.5
Cc1nc2cc(-c3ccc(Cl)cc3)nn2c(C)c1CCC(=O)NCc1cccnc1 | 1 | 0.39
COc1ccc(-c2nc3ccccc3n2Cc2ccc(F)cc2)cc1OC | 0.97 | -0.74
CCOC(=O)N1CCC(Nc2c(NCCc3ccc(Cl)cc3)c(=O)c2=O)CC1 | 1.1 | 1
CC(=O)Nc1ccc(N2C(=O)CC(N3CCC(O)(c4ccc(Br)cc4)CC3)C2=O)cc1 (configuration not stated) | 1 | 0.32
CCOc1ccc(CCNC(=O)Cn2nc(-c3ccccc3)c3ccccc3c2=O)cc1OCC | 1.1 | 0.62
O=C(NCCCN1CCOCC1)c1cc(=O)[nH]c2ccc(S(=O)(=O)N3CCCC3)cc12 | 1 | 0.48
CCC1=Nc2cc(C(=O)NCCCOC)ccc2Sc2ccc(Br)cc21 | 0.92 | -4
Cc1nc2ncnn2c(C)c1CCC(=O)N1CCN(c2cccc(Cl)c2)CC1 | 1 | 0.98
CCOc1ccc(C(=O)N(Cc2cccs2)C2CCS(=O)(=O)C2)cc1 (configuration not stated) | 1.1 | 1.1
CCOC(=O)c1cccc(NC(=O)CCc2nc(-c3ccc(C)cc3)no2)c1 | 1.1 | 3.1
O=C(Nc1ccc2oc(-c3ccncc3)nc2c1)c1sc2ccccc2c1Cl | 1 | 0.61
Cc1nn(Cc2ccccc2)c(C)c1NC(=O)c1noc2c1CCc1ccccc1-2 | 0.81 | -2.2
CCCCN1C(=O)C(O)(CC(=O)c2cccnc2)c2cc(Br)ccc21 (configuration not stated) | 0.82 | -0.24
COc1ccc2cc(CCNC(=O)COc3ccc4ccccc4c3)c(=O)[nH]c2c1 | 1 | 0.27
CCC(=O)N1c2ccc(S(=O)(=O)N3CCN(c4ccccc4)CC3)cc2CC1C (configuration not stated) | 1.4 | 1.7
CCOc1ccc(N2C(=O)Cn3cccc3C2C(=O)NC2CCC(C)CC2)cc1 (configuration not stated) | 1 | 0.44
O=C(CN1C(=O)CSc2ccc(S(=O)(=O)N3CCCCCC3)cc21)NC1CCCCC1 | 1 | -0.069
O=C1c2ccccc2C(Nc2ccccn2)N1Cc1ccccc1 (configuration not stated) | 0.91 | -1.3
CCOc1c(OC)cccc1C1CC(=O)Nc2cc(OC)c(OC)cc21 (configuration not stated) | 0.98 | -0.26
CC(C)Oc1ccc(CNC(=O)Nc2cccs2)cc1 | 1 | 0.038
Cc1ccccc1OC1C(=O)N(Cc2ccc3c(c2)OCO3)C1c1ccc(F)cc1 (configuration not stated) | 0.79 | -0.75
COc1ccc(-c2nn(C)c(=O)c3ccccc23)cc1NC(=O)c1ccc(C)cc1 | 0.94 | -2
Cc1ccc(-c2nc3nc(-c4ccc(Cl)cc4Cl)cn3nc2-c2ccc(C)cc2)cc1 | 1.7 | 0.71
COc1ccc(OCC(O)CN2CC(C)OC(C)C2)cc1 (configuration not stated) | 0.91 | -0.55
O=C(C1=CCN(S(=O)(=O)c2ccccc2)CC1)N1CCCCC1 | 1 | 1.5
CCOCCCNC(=O)CCN1N=C(c2ccc(OC)cc2)CCC1=O | 1 | 0.41
O=c1c2ccccc2nc(CSc2nccn2Cc2ccccc2)n1-c1ccccc1Cl | 0.91 | -2.5
Cc1cc(C)cc(N2CC(c3nc4ccccc4n3CCc3ccccc3)CC2=O)c1 (configuration not stated) | 0.84 | -0.7
COc1cccc(C(=O)Nc2nnc(CCS(=O)(=O)c3ccc(Br)cc3)s2)c1 | 1 | 0.13

Some of these compounds in order of formula weight, high to low:
SMILES | CBX7 AlphaScr | CBX7 AlphaScr z-score
CCOc1ccc(N2C(=O)Cn3cccc3C2C(=O)NC2CCC(C)CC2)cc1 (configuration not stated) | 1 | 0.44
CCOc1c(OC)cccc1C1CC(=O)Nc2cc(OC)c(OC)cc21 (configuration not stated) | 0.98 | -0.26
O=C(C1=CCN(S(=O)(=O)c2ccccc2)CC1)N1CCCCC1 | 1 | 1.5
O=C1c2ccccc2C(Nc2ccccn2)N1Cc1ccccc1 (configuration not stated) | 0.91 | -1.3
COc1ccc(OCC(O)CN2CC(C)OC(C)C2)cc1 (configuration not stated) | 0.91 | -0.55

Among those listed so far, 4 contain a thiophene ring, fused or not:
SMILES | CBX7 AlphaScr | CBX7 AlphaScr z-score
COc1ccc(NC(=O)c2cc3c(-c4ccc(OC)c(OC)c4)nn(C)c3s2)cc1OC | 0.85 | -1.5
CCOc1ccc(C(=O)N(Cc2cccs2)C2CCS(=O)(=O)C2)cc1 (configuration not stated) | 1.1 | 1.1
O=C(Nc1ccc2oc(-c3ccncc3)nc2c1)c1sc2ccccc2c1Cl | 1 | 0.61
CC(C)Oc1ccc(CNC(=O)Nc2cccs2)cc1 | 1 | 0.038

More compounds follow.
SMILES | CBX7 AlphaScr | CBX7 AlphaScr z-score
Cc1ccc(-c2csc(NC(=O)c3ccc(-c4ccccc4)cc3)n2)cc1 | 1.1 | 1.4
O=C(Cn1nnc(-c2ccc(OCc3cccc(C(F)(F)F)c3)cc2)n1)N1CCOCC1 | 1.1 | 0.99
Cc1ccc(NC(=O)c2cc(S(=O)(=O)N3CCCCCC3)ccc2F)cc1 | 1.2 | 2.5
Cc1ccc(NC(=O)CSc2nnc(CNC(=O)COc3ccc(Cl)cc3)o2)cc1 | 0.95 | -0.76
COc1cc2c(C(=O)NCCCN3CCN(C)CC3)cn(CC(C)C)c(=O)c2cc1OC | 1.1 | 1.2
COc1ccc2c(c1)-c1nc(NC(=O)c3ccc(OC)c(OC)c3)sc1CC2 | 0.9 | -1.4
CC1(C)CC(=O)c2cc(C(=O)Nc3cccc(F)c3)c(=O)n(-c3ccc(Cl)cc3)c2C1 | 1 | 0.023
COc1ccc(NC(=O)CSc2nc(-c3cccc(F)c3)[nH]c2-c2ccccc2)cc1OC | 0.81 | -8.8
COc1ccccc1-c1noc(CCC(=O)N2CCN(c3ccc(N4CCOCC4)nn3)CC2)n1 | 0.99 | -0.18
O=C(Nc1ccc2nc3n(c(=O)c2c1)CCCCC3)c1ccncc1 | 0.98 | -0.63
COc1ccc(-c2nnc(Nc3ccc(F)cc3)c3ccccc23)cc1 | 0.91 | -1
Cc1ccc(N2C(=O)CC(N3CCC(C(N)=O)(N4CCCCC4)CC3)C2=O)c(C)c1 (configuration not stated) | 1 | 0.71
Cc1ccc(-n2c(-c3ccccc3F)nc3c(cnn3-c3ccccc3)c2=O)cc1 | 0.88 | -4.6
COc1ccc(CNC(=O)C(=O)NCC(C)C)cc1 | 1 | 0.76
Cc1cc(C)c(S(=O)(=O)NCCc2c(C)[nH]c3ccc(F)cc23)c(C)c1 | 1 | 0.2
CCC(C(=O)OC)n1cnc2c(nnn2-c2ccc(OC)cc2)c1=O (configuration not stated) | 1 | 0.88
Cc1ccc(Cl)cc1N(C)C(=O)Cc1c(C(=O)O)[nH]c2ccc(Cl)cc12 | 1 | 0.32
CC1CC(C)CN(CCCNC(=O)c2ccc3c(c2)ncn3C2CCCC2)C1 (configuration not stated) | 0.96 | -1.3
COc1ccc(-c2nnc(OC)c3ccccc23)cc1 | 0.7 | -1.2
COc1ccc(N2CCN(C(=O)CN(C)S(=O)(=O)c3cnc[nH]3)CC2)cc1 | 1.1 | 0.96
Cc1ccc(Nc2nc(-c3ccc(I)cc3)cs2)cc1C | 0.78 | -3.3
Cc1nc2c(C(=O)NCCN(C)C)c[nH]n2c(=O)c1Cc1ccccc1F | 0.98 | -0.57
Cc1ccc(NS(=O)(=O)c2ccc3[nH]cc(C(=O)NCCc4ccccc4)c(=O)c3c2)c(C)c1 | 0.92 | -0.33
O=C(Nc1ccccc1Cl)C1CCCN1S(=O)(=O)c1cccc2cccnc12 (configuration not stated) | 0.97 | -0.85
c1ccc(CSc2nnc(-c3cccnc3)o2)cc1 | 0.92 | -1.2
O=C(Nc1ncc(Cc2ccc(Cl)cc2)s1)c1ccco1 | 0.96 | -0.86
O=C(O)c1ccc2[nH]c(=O)c(Cc3cccc(Cl)c3)nc2c1 | 1 | 0.31
Cc1nc(=O)c(-c2ccccc2)c(C)n1-c1ccccc1O | 0.97 | -0.79
Cc1nc2cc(-c3ccccc3)nn2c(C)c1CCC(=O)NCc1ccc2c(c1)OCO2 | 1 | 0.68
Cc1cccc(Cc2cnc(NC(=O)CCCOc3ccc(Br)cc3)s2)c1 | 0.96 | -1.1
CCOC(=O)c1cc(-c2ccccc2)n(CCC(=O)Nc2cc(OCC)ccc2OCC)c1C | 0.95 | -1.2
Cc1cccc2c1-c1sc(C(=O)NCCN3CCCCCC3)cc1CO2 | 1.3 | 8
COCCCNC(=O)C1CCC(=O)N(c2ccc(OC)cc2)C1c1ccc(F)cc1 (configuration not stated) | 1.2 | 2.3
Cc1cc(Cl)ccc1OCC(=O)Nc1ccc2oc(-c3ccncc3)nc2c1 | 1 | 0.012
Cc1ccc(F)cc1NC(=O)c1c(-c2ccccc2)noc1C | 0.93 | -0.79
CC1CCCN(CC(O)COCc2ccc(Cl)cc2)C1 (configuration not stated) | 1.1 | 0.96
CCCc1cc(C(=O)Nc2c(C)nn(Cc3ccc(C)cc3)c2C)no1 | 1 | 0.027
Cc1ccc(-c2nc(SCC(=O)Nc3ccc4c(c3)OCO4)c(-c3ccccc3)[nH]2)cc1 | 0.94 | -2.9
CCOC(=O)N1CCC(N2C(=O)c3ccc(C(=O)Nc4ccc(OC)c(OC)c4)cc3C2=O)CC1 | 1 | 0.65
CCn1cc(C(=O)N2CCC(C(N)=O)CC2)c(=O)c2ccc(C)nc21 | 1 | 0.26
Nc1c(C(=O)Nc2ccc(S(N)(=O)=O)cc2)sc2nc3c(cc12)CCCC3 | 1.1 | 2.5
O=C(c1ccccc1)N1CCN(c2nc(-c3ccccc3)cs2)CC1 | 0.87 | -1.7
O=C(c1ccc2c(c1)ncn2C1CCCCC1)N1CCCC1 | 0.96 | -1.1
CC(=O)N1CCc2cc(S(=O)(=O)NC(CC(C)C)C(=O)Nc3ccc(F)c(F)c3)ccc21 (configuration not stated) | 0.89 | -1.4
Cc1cccc(-n2c(Cc3cc(=O)[nH]c(=O)[nH]3)nnc2SCc2c(F)cccc2Cl)c1 | 0.97 | -0.11
Cc1ccc(S(=O)(=O)N2CC3(C)CN(S(=O)(=O)c4ccc(C)cc4)CC(C)(C2)C3O)cc1 (configuration not stated) | 1 | 0.9
CCC(=O)NCc1nc2ccccc2n1Cc1cc(C)ccc1C | 0.96 | -0.51
COc1cccc(NC(=O)C2c3ccccc3C(=O)N3CCc4ccccc4C23)c1 (configuration not stated) | 0.94 | -1.1
COc1ccc(-c2nnc(-c3ccncc3)o2)cc1 | 1.1 | 0.74
Cc1cc(OCC(=O)Nc2c(C(=O)c3ccccc3)oc3ccccc23)cc(C)c1Cl | 1.2 | 0.61
CS(=O)(=O)N(CC(O)Cn1c2ccccc2c2ccccc21)c1ccc(F)cc1 (configuration not stated) | 1 | 0.5
O=C(NCc1ccc2c(c1)OCO2)C(=O)Nc1cccc(C(F)(F)F)c1 | 0.94 | -0.68
CCc1ccc(NC(=O)Cn2cnc3c(nnn3-c3ccc(OC)cc3)c2=O)cc1 | 0.96 | -0.84
CCOC(=O)c1nc(Nc2cccc(C)c2)c2ccccc2n1 | 1 | -0.12
COc1ccc(S(=O)(=O)CCc2nnc(NC(=O)c3ccc(C)cc3)s2)cc1 | 1.1 | 0.52
CCn1c(C(=O)NCCCN2CCOCC2)cc2sc(Cl)cc21 | 1.1 | 2.9
Cc1cc2nc(-c3cccc(NC(=O)c4cc5ccccc5o4)c3)oc2cc1C | 1.1 | 0.82
O=C(Nc1c(-c2ccccc2)nc2ccccn12)c1ccccc1F | 0.92 | -2.4
Cc1c(C(=O)N2CC(C)OC(C)C2)sc2nc(-c3ccc(F)cc3)cn12 (configuration not stated) | 1 | 1.2
COc1ccc(Br)cc1CNC(=O)C1CCCN(S(C)(=O)=O)C1 (configuration not stated) | 1.1 | 0.84
(further entries)
SMILES | CBX7 AlphaScr | CBX7 AlphaScr z-score
CCCNC(=O)CN1C(=O)COc2ccc(S(=O)(=O)N(CC)CC)cc21 | 1.1 | 2.2
CCCS(=O)(=O)NCCc1cc2ccc(C)cc2[nH]c1=O | 1.1 | 0.98
O=C(Nc1ccc(-c2cn3ccccc3n2)cc1)c1cccnc1 | 0.93 | -0.56
O=C(Cc1c(C(=O)O)[nH]c2ccc(Cl)cc12)NCCCN1CCCC1=O | 1.1 | 2.3
Cc1cc2ccccc2c(=O)n1CC(=O)N1CCC(C(N)=O)CC1 | 1 | 0.82
COc1ccc(Nc2nc(-c3ccc(C)cc3)nc3ccccc23)cc1Cl | 1.3 | 5
Cc1sc2ncnc(NC3CCCCC3)c2c1C | 1 | 0.39
CC(=O)N1CCc2cc(Br)cc(S(=O)(=O)NCCN(C)Cc3ccccc3)c21 | 1 | 0.36
CCOC(=O)c1cnc2ccc(OC)cc2c1Nc1ccccc1 | 0.73 | -1.2
COc1cc2c(cc1OC)C(C(=O)Nc1ccc(F)cc1Cl)C(c1ccccc1F)N(C)C2=O (configuration not stated) | 0.87 | -2.4
Cc1cc(NC(=O)C2CCCN(S(=O)(=O)c3cccnc3)C2)ccc1Br (configuration not stated) | 1 | 0.032
O=c1cc(N2CCN(Cc3ccccc3)CC2)[nH]c(=O)n1-c1ccccc1Cl | 0.93 | -1.4
CCC(C)NC(=O)c1c[nH]c2ccc(S(=O)(=O)N3CCC(C)CC3)cc2c1=O (configuration not stated) | 1.1 | 1.6
COc1ccc(N2CCN(C(=O)C3CCN(c4nc5ccccc5[nH]4)CC3)CC2)cc1 | 1.1 | 0.96
